# AmpC nodet inh – blocks E. coli AmpC beta-lactamase in absence of detergent; P00811; AmpC nitrocefin hydrolysis, absorbance 480 nm, no detergent; potencies from a single point are estimates; Potency, µM (doses to about 28.7 µM), for the others: at the top dose activity change, negative = inhibition; hit rate 1.8% among 71,000; active = falling curve, for most hits resting on a single point; inconclusive = weak or doubtful change; inactive = flat or rising curve; note: % of control where 0% means no effect; about half of the hits show no inhibition at the top dose; a quarter of the inactives give rising signals
# Target sequence (P00811 whole entry, looked up): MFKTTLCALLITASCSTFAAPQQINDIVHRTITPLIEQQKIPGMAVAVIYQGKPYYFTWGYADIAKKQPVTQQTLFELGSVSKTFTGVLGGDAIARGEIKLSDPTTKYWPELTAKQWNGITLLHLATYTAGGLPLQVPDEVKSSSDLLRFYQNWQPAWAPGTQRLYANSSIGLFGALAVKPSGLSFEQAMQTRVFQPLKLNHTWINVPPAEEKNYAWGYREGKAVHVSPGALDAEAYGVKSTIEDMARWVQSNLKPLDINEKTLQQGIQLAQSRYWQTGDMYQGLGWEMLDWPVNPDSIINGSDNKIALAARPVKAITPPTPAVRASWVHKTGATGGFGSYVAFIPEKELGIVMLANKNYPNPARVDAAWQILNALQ
#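 AmpC in 20 mM phosphate buffer pH 7.0 was preincubated 15 min at room temperature with compounds. Nitrocefin (800 uM stock) was then added and hydrolysis followed at 480 nm every 20 s for 4 min.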
# Numbers without * were called inactive; ? = inconclusive; [ ] = another dose, or the depositor's remark. Potency is the fitted concentration of half-maximal effect.
# Start of the data: the first 17 compounds as a preview:
SMILES,AmpC nodet inh
COc1ccccc1NC(=O)c1c(NC(=O)c2ccco2)sc2c1CCC2,13%
CCN(CCCNC(=O)CCNC(=O)Cn1cnc2ccccc2c1=O)c1cccc(C)c1,103%
Cc1nn(-c2ccc(F)cc2)c2sc(C(=O)OCC(=O)N3CCC(C)CC3)cc12,102%
CC(=O)N1c2ccccc2NC2=C(C(=O)CCC2)C1c1cccnc1 (stereo unspecified),14%
C/C=C/c1ccc(OC)c(OC(C)=O)c1,11%
CC(OC(=O)CNC(=O)C12CC3CC(CC(C3)C1)C2)C(=O)Nc1ccc(N2CCOCC2)cc1 (stereo unspecified),128%
CCOC(=O)c1ccccc1NC1OC(=O)c2ccccc21 (stereo unspecified),-15%
CC(C)CC(=O)Nc1ccc(OCC(=O)O)cc1,9%
CCOC(=O)c1[nH]c2ccc(OC)cc2c1NC(=O)OC,-3%
CCOC(=O)C1CCCN(C(=O)c2ccc(CNc3c(N4CCC(C)CC4)c(=O)c3=O)cc2)C1 (stereo unspecified),52%
COC(=O)c1sc(NC(=O)COc2ccccc2OC)nc1C,12%
CCn1c(-c2ccc(F)cc2)n[nH]c1=S,-3%
O=c1c(CCc2ccccc2)nc2cnc(N3CCOCC3)nc2n1C[C@H]1CCCO1,-1%
CCc1ccc(Nc2nc(N)nc(CSc3nnnn3-c3ccccc3)n2)cc1,7%
CN(C)c1ncc2nc(-c3cccc(C#N)c3)c(=O)n(C[C@H]3CCCO3)c2n1,9%
O=C(Cn1[nH]c(=O)c2ccccc2c1=O)NC1CCN(Cc2ccccc2)CC1,5%
CC(C)CN1CCCC2(CCN(C(=O)c3cc(C(F)(F)F)cc(C(F)(F)F)c3)CC2)C1,127%

# This part in full, from the start:
SMILES,AmpC nodet inh
COc1ccccc1NC(=O)c1c(NC(=O)c2ccco2)sc2c1CCC2,13%
CCN(CCCNC(=O)CCNC(=O)Cn1cnc2ccccc2c1=O)c1cccc(C)c1,103%
Cc1nn(-c2ccc(F)cc2)c2sc(C(=O)OCC(=O)N3CCC(C)CC3)cc12,102%
CC(=O)N1c2ccccc2NC2=C(C(=O)CCC2)C1c1cccnc1 (stereo unspecified),14%
C/C=C/c1ccc(OC)c(OC(C)=O)c1,11%
CC(OC(=O)CNC(=O)C12CC3CC(CC(C3)C1)C2)C(=O)Nc1ccc(N2CCOCC2)cc1 (stereo unspecified),128%
CCOC(=O)c1ccccc1NC1OC(=O)c2ccccc21 (stereo unspecified),-15%
CC(C)CC(=O)Nc1ccc(OCC(=O)O)cc1,9%
CCOC(=O)c1[nH]c2ccc(OC)cc2c1NC(=O)OC,-3%
CCOC(=O)C1CCCN(C(=O)c2ccc(CNc3c(N4CCC(C)CC4)c(=O)c3=O)cc2)C1 (stereo unspecified),52%
COC(=O)c1sc(NC(=O)COc2ccccc2OC)nc1C,12%
CCn1c(-c2ccc(F)cc2)n[nH]c1=S,-3%
O=c1c(CCc2ccccc2)nc2cnc(N3CCOCC3)nc2n1C[C@H]1CCCO1,-1%
CCc1ccc(Nc2nc(N)nc(CSc3nnnn3-c3ccccc3)n2)cc1,7%
CN(C)c1ncc2nc(-c3cccc(C#N)c3)c(=O)n(C[C@H]3CCCO3)c2n1,9%
O=C(Cn1[nH]c(=O)c2ccccc2c1=O)NC1CCN(Cc2ccccc2)CC1,5%
CC(C)CN1CCCC2(CCN(C(=O)c3cc(C(F)(F)F)cc(C(F)(F)F)c3)CC2)C1,127%
CC1CN(c2nnnn2-c2ccccc2)CC(C)O1 (stereo unspecified),2%
CCOCCCNC(=O)C(NC(=O)c1ccc2c(c1)OCO2)c1ccc(OC)cc1 (stereo unspecified),22%
Nc1nc(Cn2nnc(-c3ccccc3Cl)n2)nc(N2CCOCC2)n1,15%
CCCC(=O)Nc1nc2ccc(OCC)cc2s1,1%
COC(=O)c1[nH]c2ccccc2c1NC(=O)Oc1ccccc1,-12%
CC[C@@H](C)[C@H](NC(=O)OC(C)(C)C)c1nnc(S(=O)(=O)Cc2cc(C)ccc2C)o1,?
CCCNC(=O)c1ccc(SC)cc1OC,2%
CC(C)c1ccc(S(=O)(=O)N2CCN(CCC(=O)Nc3ccc(N(C)C)cc3)CC2)cc1,111%
# The listing continues.
SMILES,AmpC nodet inh
Cc1ccc(NCc2nnc(SCC(=O)c3ccc4c(c3)OCCO4)o2)c(C)c1,34%
COc1cc2c(cc1OC)CN(C(=O)C(C)(C)C)CC2,11%
Cc1ccccc1-c1ccc2ncnc(NC3CC3)c2c1,64%
CCOC(=O)C(Cc1c[nH]c2ccccc12)NC(=O)CNC(C)=O (stereo unspecified),6%
O=c1[nH]c2ccccc2n1CCCSCCCn1c(=O)[nH]c2ccccc21,27%
O=C(C1CCCN(S(=O)(=O)c2cccc3nsnc23)C1)N1CCN(c2ccccn2)CC1 (stereo unspecified),-17%
CCOC(=O)N1C(=O)c2cc(OC)ccc2S1(=O)=O,?
COCc1cc(C)nc2sc(C(=O)OC)c(N)c12,-6%
Nc1ncnc2nc(N3CCN(C(=O)c4ccccc4)CC3)[nH]c12,-9%
CCc1ccc(C2CC(c3ccccc3)Nc3nc(N)nn32)cc1 (stereo unspecified),26%
Cc1ccc2c(c1)C1CN(C)CCC1N2C(=O)COc1ccc(S(=O)(=O)N2CCOCC2)cc1 (stereo unspecified),56%
CCCC/C=C/C(NC(=O)C(C)(C)C)c1ccccc1 (stereo unspecified),14%
CCc1nc(N)nc(N)c1-c1ccc(Cl)cc1,-5%
COCCn1nnnc1C1(N(Cc2cc3cc(C)ccc3[nH]c2=O)CC2CCCO2)CCN(C)CC1 (stereo unspecified),38%
Cc1cc(C)n(CCO)c(=O)n1,6%
CSc1ccccc1NC(=O)Nc1ccccc1,-12%
COc1ccc(-c2nnc(SC(C)C(=O)Nc3nccs3)n2-c2ccccc2)cc1OC (stereo unspecified),77%
COc1cccc(NC(=O)C(C)Oc2ccccc2)c1 (stereo unspecified),7%
Cc1c(C(=O)N(C)Cc2ccccc2)oc2ccc(S(=O)(=O)N3CCCC3)cc12,77%
Cc1ccc(CN2C3=NCCCN3c3ccccc32)cc1,34%
Cc1ccc(-c2nnc3c4ccccc4c(C)nn23)cc1S(=O)(=O)N1CCN(C)CC1,120%
COc1cccc(NS(=O)(=O)c2cc(C)ccc2OC)c1,-10%
CC(=O)N1CCc2cc(S(=O)(=O)NC(CC(C)C)C(=O)N3CCn4c3nc3ccccc34)ccc21 (stereo unspecified),126%
COc1cc(C)c(S(=O)(=O)Nc2ccc(CC(=O)O)cc2)cc1C,2%
CCC(=O)N1CCc2cc(S(=O)(=O)NCCCN(CC)Cc3ccccc3)ccc21,23%
# (listing goes on)
SMILES,AmpC nodet inh
CN(C)C(=O)c1ccc(-c2cc(N(C)Cc3ccco3)ncn2)cc1,40%
Cc1ccc(CNC(=O)C2CCN(S(=O)(=O)c3cccs3)CC2)o1,61%
CCCCN(CC)C(=O)CN(C)S(=O)(=O)c1cccc2nsnc12,14%
CC(C)(C)NC(=O)C(c1ccccc1)N(Cc1ccco1)C(=O)c1csnn1 (stereo unspecified),19%
N[C@@H](Cc1cnc[nH]1)C(=O)O,14%
COC(=O)c1ccc(-c2nc(-c3ccc(Br)o3)no2)cc1,4µM*[single pt active]
O=C(Nc1ccc2c(c1)OCCO2)C1CCN(c2cnccn2)CC1,-10%
CCc1ccc(CNc2ccc(N3CCN(C(C)=O)CC3)cc2)cc1,120%
COc1ccc(-c2cc(CCCC(=O)NCc3ccccn3)no2)cc1,3.2µM*[single pt active]
c1ccc(-c2csc3nnc(SCc4ccc5c(c4)OCCO5)n23)cc1,-1%
COc1cc(C(=O)O)nc2ccccc12,7%
CCC(=O)NC(c1ccccc1)c1nc2ccccc2[nH]1 (stereo unspecified),-11%
CCS(=O)(=O)N1CCCC(C(=O)NCc2ccc3c(c2)OCO3)C1 (stereo unspecified),-1%
Cn1c(=O)oc2cc(S(=O)(=O)NCCC(=O)N3CC=C(c4ccccc4)CC3)ccc21,85%
COc1cccc(-c2nccc(NCc3cccc(C)c3)n2)c1,36%
Cc1ccc(OCC(=O)Nc2ccc(-c3nc4ncccc4o3)cc2)cc1,-3%
Cc1oc(-c2ccc(Cl)cc2)nc1CSCC(=O)NCCCN1CCOCC1,84%
CCOC(=O)c1sc(NC(=O)c2ccc(CC)s2)nc1C,90%
CCN(CC)CCn1c(-c2ccccc2)nc2c(NCc3ccccc3)nc(C)nc21,86%
O=C(Cn1cc2c(n1)CCCCC2)NCc1ccccc1,14%
CCNc1ncc2nc(-c3cn(C)c4ccccc34)c(=O)n(-c3ccc(OC)cc3)c2n1,-6%
O=C(O)CC(c1ccccc1)c1ccccc1,0%
COc1ccc(-c2c3c(=O)n(C)c(=O)n(C)c3cn2Cc2cccnc2)cc1,1%
Cc1noc(/C=C/c2ccco2)c1S(=O)(=O)N1CCC(C(=O)NCc2ccco2)CC1,51%
CCOC(=O)Cn1c(=O)c2c(nc3n2CCCCN3c2ccc(C)cc2)n(C)c1=O,99%
# Continued.
SMILES,AmpC nodet inh
CCCCn1c(CCNC(=O)CC)nc2ccccc21,15%
COC(=O)CCc1c(C)c(C#N)c2nc3ccccc3n2c1N1CCCC1,28%
OCCCCNc1cccc2ccccc12,37%
Cc1cc2c(C)nc(-c3ccccc3)nc2o1,2%
O=C(O)C1CCCCC1C(=O)Nc1ccc2c(c1)OCCO2 (stereo unspecified),-5%
CCOC(=O)C1=C(CN2CCN(c3ccc(F)cc3)CC2)NC(=O)NC1c1cccs1 (stereo unspecified),8%
CCOC(=O)C1=C(N)N2C(=O)C(C)SC2=C(C(=O)OC)C1c1ccccc1OC (stereo unspecified),44%
COc1ccc2oc(C)c(C(N)=O)c2c1,-5%
COc1ccccc1C(=O)N(CN1CCCC1=O)c1cccc(Cl)c1,11%
O=Cc1ccc(Cl)cc1,-17%
CC12CN3CC(C)(CN(C1)C3c1ccco1)C2=O (stereo unspecified),-5%
COc1ccc(CN2CCN(C(=O)c3cc(OC)c(OC)c(OC)c3)CC2)cc1OC,60%
CCOC(=O)C1=C(C)N(C)C(=O)NC1c1ccc(C)s1 (stereo unspecified),-1%
O=c1cc(CSc2nnc(COc3ccccc3Cl)o2)nc2sccn12,36%
CCC(CC)C(=O)Nc1cc(C(=O)OC)cc(C(=O)OC)c1,2%
CCC1(C)Cc2c(sc3c2c(=O)n(C)c2nnc(SCCc4ccccc4)n32)CO1 (stereo unspecified),16%
COc1ccc(CCNC(=O)CC2Nc3ccccc3NC2=O)cc1 (stereo unspecified),-8%
CC(=O)NS(=O)(=O)c1ccc(NS(=O)(=O)c2ccc(F)cc2)cc1,-5%
Cc1nc2c(C(=O)NCCc3ccccc3)c[nH]n2c(=O)c1Cl,5%
O=S(=O)(NCc1csc(-c2ccccc2)n1)c1ccc(Cl)s1,-8%
CCOC(=O)N1CCN(C(=O)CN(c2ccc(C)cc2)S(=O)(=O)c2c(C)noc2C)CC1,90%
O=C(c1c(F)c(F)c(F)c(F)c1F)N1CCN(c2cccc(C(F)(F)F)c2)CC1,6%
COc1ccc(N2CCN(c3oc(-c4ccccc4OC)nc3C#N)CC2)cc1,68%
O=C(Nc1ccc(F)cc1)N1CCC(c2nc3c(nnn3Cc3cccc(Cl)c3)c(=O)[nH]2)CC1,61%
O=C(NCc1ccco1)C1CCC(N2C(=O)c3ccccc3C2=O)CC1 (stereo unspecified),-2%

# 3 entries already listed, ordered by molecular weight, low to high.
SMILES,AmpC nodet inh
O=Cc1ccc(Cl)cc1,-17%
COc1ccc(CCNC(=O)CC2Nc3ccccc3NC2=O)cc1 (stereo unspecified),-8%
COc1ccc(N2CCN(c3oc(-c4ccccc4OC)nc3C#N)CC2)cc1,68%

# Additional structures
SMILES,AmpC nodet inh
COc1ccc(NC(=O)CN2c3cccc4cccc(c34)S2(=O)=O)cc1,-22%
Cn1cccc1Cc1nnc(SCC(=O)Nc2ccc3c(c2)OCCO3)n1CCc1ccccc1,64%
O=C1c2ccccc2C(=O)N1CSc1nnnn1-c1ccccc1,0%
NC(=O)CCCCC(=O)OCCCc1cccs1,13%
CC12CCCCC1c1ccccc1C(=NCC(=O)O)N2 (stereo unspecified),-5%
COc1ccc(NC(=O)C2CCCN(S(=O)(=O)c3cccc4cccnc34)C2)cc1 (stereo unspecified),?
CC(=O)NCCn1c(SCc2ccccc2F)nc2ccccc2c1=O,122%
O=C(O)Cn1cc2c(n1)CCCC2,-12%
COC(=O)Cn1c(CN2CCC(Cc3ccccc3)CC2)nc2c1c(=O)n(C)c(=O)n2C,136%
CCOC(=O)CSc1nnc(CNC(=O)c2cccs2)n1-c1cccc(C)c1,34%
CC1(C)CC(CCNC(=O)c2ccc(-n3cnnn3)cc2)CC(C)(C)N1,36%
Cc1ccc(NCc2nnc(SCC(=O)Nc3cccc(O)c3)n2CC2CCCO2)c(C)c1 (stereo unspecified),3%
Cc1nc(CSc2nc3[nH]ncc3c(=O)n2-c2ccccc2)cs1,0%
CCC(=O)O[C@H]1CC[C@H]2[C@@H]3CCC4=CC(=O)CC[C@]4(C)[C@H]3CC[C@]12C,58%[12.8 µM]
COc1ccc(S(=O)(=O)N2CCN(S(=O)(=O)c3ccc(C(F)(F)F)cc3)CC2)cc1C,-2%
CCOC(=O)/C=C1\SCC(=O)N1CC(=O)Nc1ccccc1OC(F)F,15%
CC(=O)c1cccc(NC(=O)NCc2ccccn2)c1,1%
Cc1ccc(-n2nc(-c3ccc(N)cc3)cc2N)cc1,3.2µM*[single pt active]
CCCCNC(=O)CSc1nc2ccc(N3CCOCC3)cc2c(=O)n1CCc1ccccc1,88%
Cn1c(C(=O)N2CCCC2)cc2c(=O)n(C)c3ccccc3c21,11%
Cc1ccc(Br)cc1S(=O)(=O)N1CCN(c2ccccc2)CC1,-1%
O=C(NCCc1ccccc1)c1cccnc1N1CCCCCC1,15%
COc1ccc(N2CCN(c3nc4c(c(=O)[nH]c(=O)n4C)n3Cc3ccccc3Cl)CC2)cc1,15%
O=C(c1ccco1)N1CCN(c2ncnc3sc4c(c23)CCC4)CC1,46%
NC[C@H](O)C1CCCCCCC1,-2%
COc1ccc2c(=O)c3c(=O)n(Cc4ccco4)c(C(C)C)nc3oc2c1,11%

# The list is partial (hit frequency here may not be typical).
